2A Renilla: Primary qHTS Assay for Foot and Mouth Disease Virus Antivirals against NCGC Sytravon and CBC Compound Libraries: Renilla Luciferase Signal | AID 1745857, 2022 | HEK cells with a luciferase reporter of 2A StopGo recoding | Potency, µM (highest dose often 57.5 µM), inactives show at the top dose signal change, negative = less light | actives 0.32% (n = 120,000); active means well fitted falling curve with a large enough effect; inconclusive means small, poorly fitted or top-dose-only effect; inactive means no such curve, though single readings can be large or run the other way; note: nearly all actives have a fitted effect of over 55% in size; overnight with compound
StopGo FLuc: Primary qHTS Assay for Foot and Mouth Disease Virus Antivirals against NCGC Sytravon and CBC Compound Libraries: Firefly Luciferase Signal | HEK cells with a luciferase reporter of 2A StopGo recoding | Potency, µM (doses to about 57.5 µM), without a hit: top-dose signal change, negative = less light | actives 0.23% (n = 120,000); active = well fitted falling curve with a large enough effect; inconclusive = small, poorly fitted or top-dose-only effect; inactive = no such curve, though single readings can be large or run the other way; note: nearly all actives have a fitted effect of over 60% in size; overnight with compound
Numbers without * were called inactive; ? = inconclusive; [ ] = another dose, or the depositor's remark. % is set by controls: 0 for no effect and ±100 for the full control effect; potency is the fitted concentration of half-maximal effect.

structure | 2A Renilla | StopGo FLuc
CCOC(=O)CSc1nc2c(sc3ccccc32)c(=O)n1CCc1ccccc1 | -10% | -9%
Cc1ccc(-c2noc3ncnc(NC4CCCC4)c23)cc1 | -22% | -18%
CN(CC(=O)Nc1c(Cl)cccc1Cl)C(=O)CNC(=O)c1cccs1 | -11% | -5%
COC(=O)c1ccc(Oc2nc3c(c(=O)n(C)c(=O)n3C)n2Cc2ccc(C#N)cc2)cc1 | 12% | -8%
CCCCNCc1ccccc1C(F)(F)F | 7% | 9%
CC(CN1CCOCC1)NS(=O)(=O)c1ccc(F)cc1Cl (stereo not given) | -8% | -2%
O=C(NCCn1cc(SCc2ccccc2)c2ccccc21)c1cccs1 | ? | -10%
Cc1ccc(-n2ncc3c(N4CCN(Cc5ccccc5)CC4)ncnc32)cc1 | -2% | 17%
COC(CNC(=O)CS(=O)Cc1nc(-c2ccccc2C)oc1C)OC (stereo not given) | -24% | -17%
COc1ccccc1Cc1nnc(NC(=O)c2ccc(NC(=O)C(C)C)cc2)s1 | -1% | -5%
CC(C)Cc1cc(-c2nn3c(-c4ccccn4)nnc3s2)n(C)n1 | 6% | 11%
COc1cc(OC)cc(C(=O)Nc2cc(-c3nc4cccnc4s3)ccc2C)c1 | 7% | -13%
N#CCOC(=O)CC(NC(N)=O)c1ccccc1 (stereo not given) | -2% | 9%
O=C(Nc1ccc(Cl)c(C(F)(F)F)c1)c1ccc(Cl)c(Cl)c1 | ? | ?
CC(Cn1cccn1)NC(=O)N1CCN(Cc2cccs2)CC1 (stereo not given) | -9% | 5%
CCC(C)Cc1c(C)sc2nc(CNc3ccccc3)[nH]c(=O)c12 (stereo not given) | 0% | 9%
O=C(O)Cn1cc(C(C(=O)O)N2CCN(Cc3cccnc3)CC2)c2ccc(F)cc21 (stereo not given) | -9% | -3%
O=C(COC(=O)c1c[nH]c2ccccc12)NCc1ccccc1 | -15% | -17%
O=C(CCC(=O)N1CCN(C(=O)c2cc3ccccc3[nH]2)CC1)NCCc1ccccc1 | -9% | 1%
CCCCn1cnc2c1c(=O)n(CC(=O)c1cc(C)n(C3CC3)c1C)c(=O)n2Cc1ccccc1 | 4% | 13%
O=C(CSc1ccnc(=O)[nH]1)NCc1ccc(F)cc1 | -8% | -2%
FC(F)(F)c1cccc(NC(=S)NCCc2c[nH]c3ccccc23)c1 | -79% | ?
O=C(CSc1nc2c([nH]c3ccccc32)c(=O)n1-c1ccc(F)cc1)NCc1ccco1 | 17% | 7%
O=C(/C=C/c1cn(CC(O)CN2CCc3ccccc32)c2ccccc12)c1ccc(Br)cc1 (stereo not given) | -2% | 11%
O=C1CC(c2nc3ccccc3[nH]2)CN1c1cccc(Cl)c1 (stereo not given) | 2% | -8%
N#Cc1ccc(Cn2c(=O)n(CCC(=O)NCCc3ccc(Cl)cc3)c(=O)c3sccc32)cc1 | -10% | ?
Cc1c(C(=O)N(CCC#N)c2ccccc2)sc2nc3n(c(=O)c12)CCCCC3 | -2% | 11%
O=C(c1ccc(Cn2nnc3ccccc32)cc1)N1CCN(S(=O)(=O)c2ccccc2)CC1 | ? | ?
COc1ccc(C(=O)NC2CC(=O)N(c3ccc4c(c3)OCCO4)C2)cc1 (stereo not given) | -4% | -8%
O=C1COc2cc(S(=O)(=O)CCC(=O)N3CCN(Cc4ccccc4)CC3)c(Cl)cc2N1 | -10% | -1%

Given with values under each structure: entries from further up
Under each structure – 2A Renilla, StopGo FLuc
O=C1CC(c2nc3ccccc3[nH]2)CN1c1cccc(Cl)c1 (stereo not given)
 : 2%, -8%
Cc1c(C(=O)N(CCC#N)c2ccccc2)sc2nc3n(c(=O)c12)CCCCC3
 : -2%, 11%
O=C(CSc1nc2c([nH]c3ccccc32)c(=O)n1-c1ccc(F)cc1)NCc1ccco1
 : 17%, 7%

Returning to the listing, starting 6 compounds before the break.
structure | 2A Renilla | StopGo FLuc
O=C1CC(c2nc3ccccc3[nH]2)CN1c1cccc(Cl)c1 (stereo not given) | 2% | -8%
N#Cc1ccc(Cn2c(=O)n(CCC(=O)NCCc3ccc(Cl)cc3)c(=O)c3sccc32)cc1 | -10% | ?
Cc1c(C(=O)N(CCC#N)c2ccccc2)sc2nc3n(c(=O)c12)CCCCC3 | -2% | 11%
O=C(c1ccc(Cn2nnc3ccccc32)cc1)N1CCN(S(=O)(=O)c2ccccc2)CC1 | ? | ?
COc1ccc(C(=O)NC2CC(=O)N(c3ccc4c(c3)OCCO4)C2)cc1 (stereo not given) | -4% | -8%
O=C1COc2cc(S(=O)(=O)CCC(=O)N3CCN(Cc4ccccc4)CC3)c(Cl)cc2N1 | -10% | -1%
COCCn1cnnc1SCc1nc2cc(Cl)ccc2n1C | -11% | 2%
Cc1nc(SCc2coc(-c3cccc(F)c3)n2)n[nH]1 | 18% | 173%[activator]
CCCc1ccc(C2C3=C(CC(C)(C)CC3=O)NC3=C2C(=O)c2ccccc23)cc1 (stereo not given) | -6% | ?
COc1ccc(C(=O)Oc2ccc(C#N)cc2)cc1OC | 0% | 0%
CC1=[N+]([O-])C(C)(C)C(c2ccc(Cl)cc2)=[N+]1[O-] | 5%[1.06 µM] | -18%
CCc1ccc2c(Cn3cc(S(=O)(=O)N(C)C)ccc3=O)cc(=O)oc2c1 | -6% | 4%
Cc1cccc(CSc2nnc(COc3ccc(Cl)c(C)c3)n2C)c1 | 13% | 3%
CCCCn1nc(C(=O)NCCC(=O)O)c2ccccc2c1=O | 26% | 0%
COc1ccc(-c2nnc(SCC(=O)c3ccc(NC(C)=O)cc3)o2)cc1OC | -11% | -7%
COCCn1c(C)cc(C(=O)Cn2cnc3c2c(=O)n(C)c(=O)n3C)c1C | 0% | 10%
O=C(Cn1cc(S(=O)(=O)Cc2ccccc2Cl)c2ccccc21)NCCc1ccccc1 | -7% | -11%
COc1ccc(-n2nnnc2C2CCN(S(=O)(=O)c3cccc(C(F)(F)F)c3)CC2)cc1 | -5% | -4%
Cc1cc(C)c(NC(=O)CN2C(=O)CCSc3ccc(S(=O)(=O)N4CCCC4)cc32)c(C)c1 | -13% | -23%
Cc1nc2ccc(NC(=O)CC3CC4CCC3C4)cc2s1 (stereo not given) | 26% | 173%[activator]
COCCNc1oc(-c2ccc(OC)cc2)nc1S(=O)(=O)c1ccc2c(c1)OCCO2 | 175%[activator] | 15%
COc1nn(C)c2nc(C)c(CCC(=O)NC3CCCC3)c(C)c12 | -6% | -4%
Cc1cccc(C)c1Nc1ncnc2sccc12 | -5%[1.06 µM] | 9%
O=C(CN1CCSc2ccccc21)N1CCN(c2cccc(Cl)c2)CC1 | -8% | 18%
Cc1c(C=O)c(C)n(-c2ccccc2)c1C | 7% | 19%
O/N=C/c1ccc(Cl)cc1Cl | -2% | 2%
Cc1ccc(NC(=O)Cn2c(=O)c(CNc3ccccc3)cc3cc4c(cc32)OCCO4)cc1 | -7% | 10%
O=C(Nc1nnc(S(=O)(=O)N2CCCc3ccccc32)s1)c1ccccc1 | 47%[activator] | 21%
N#Cc1c(N)n[nH]c1CCCNC(=O)c1cc2ccccc2cc1O | 59%[activator] | 41%[activator]
Cc1c(C(=O)N2CCCCCC2)c(S(=O)(=O)N2CCCc3ccccc32)c(C)n1C | 62%[activator] | -8%
CCc1nn2c(=O)c(S(=O)(=O)Nc3ccc(C)c(C)c3)c(C)nc2s1 | 42%[activator] | -5%
COc1ccc(OC)c(NC(=O)Cn2cnc3c(oc4ccccc43)c2=O)c1 | -4% | 36%[activator]
COC(=O)CC(N)c1ccc(C)cc1C (stereo not given) | 1% | 2%
COc1cc(C(=O)Nc2cccc(-c3nncn3C)c2)cc(OC)c1C | 6% | 54%[activator]
CN(C)C(=O)CSc1nc(C2CC2)nc2ccccc12 | -12% | 14%
CCNC(=O)NC(=O)C(C)N1CCN(c2ccccc2Cl)CC1 (stereo not given) | -4% | 4%

(next part)
structure | 2A Renilla | StopGo FLuc
O=C(CSc1nc2ccccc2c(=O)[nH]1)N1CCCCCC1 | 21% | 105%[activator]
CCNc1c(NC(=O)C(C)(C)C)c(=O)oc2ccccc12 | -10% | -11%
CCC(C)(C)c1ccc(OCC(O)CNCc2ccccc2)c(C(C)(C)CC)c1 (stereo not given) | ? | ?
NC(=O)NS(=O)(=O)c1ccc(Cl)cc1 | -2% | -19%[11.5 µM]
COC(=O)[C@H](CC(C)C)N1Cc2nnn(CC3CCCCC3)c2-c2ccccc2S1(=O)=O | 83%[activator] | -7%
Cc1ccc(-n2cc(-c3ccccc3)c3c(N4CCCCC4)ncnc32)cc1 | -5% | 0%
O=C(O)c1cc(Sc2ccccc2C(F)(F)F)nc2ccccc12 | -4% | 3%
CCNC(C(=O)OCC)c1ccc(Cl)cc1 (stereo not given) | 9% | 17%
CCOc1cc(/C=C2\NC(=O)NC2=O)ccc1OCc1ccc(Cl)cc1 | 20% | 8%
O=C(CSc1nnc(Cc2ccccc2)o1)Nc1ccc(Br)c(Cl)c1 | 9% | 47%[activator]
CC(NC(=O)C1(C#N)CCCC1)C12CC3CC(CC(C3)C1)C2 (stereo not given) | -8% | 11%
O=C(CCCCCn1c(=O)[nH]c2ccccc2c1=O)NCCc1ccccc1 | 47%[activator] | 12%
CCOc1ccc(N/C=C/C(=O)c2ccc(-c3ccccc3)cc2)cc1 | 1% | 171%[activator]
O=C(NCc1ccccc1Cl)c1ccc2c(c1)NC(=O)C(CS(=O)(=O)Cc1ccc(Cl)cc1)N2 (stereo not given) | -6% | -18%
Cc1oc(-c2ccccc2)nc1C(=O)Nc1cccc(F)c1 | 3% | 0%
Cc1cccc(N2CCN(C(=O)c3ccc4c(Cl)c5c(nc4c3)CCCC5)CC2C)c1 (stereo not given) | -3% | -5%
CN1CCN(C(NC(=O)c2cccs2)C(=O)c2ccccc2)CC1 (stereo not given) | 134%[activator] | 100%[activator]
O=C(Cn1cnc(S(=O)(=O)N2CCCC2)c1)Nc1cccc(Br)c1 | -9% | -6%
CCOC(=O)c1cnn(-c2cc(C)nc3c(-c4ccc(F)cc4)c(CC)nn23)c1N | 2% | 4%
Fc1ccc(-c2cnc(CN3CCN(c4ccccc4)CC3)o2)cc1 | 2% | 64%[activator]
O=C(Nc1ccccc1C(=O)O)c1cccc(NC(=O)c2ccc(Br)o2)c1 | 55%[activator] | 92%[activator]
CCOC(=O)C1CCN(C(=O)c2nc3nc(-c4ccco4)cc(C(F)(F)F)n3n2)CC1 | -1% | -5%
CC(CCc1ccccc1)NC(=O)COC(=O)c1cc(C(C)(C)C)cc(C(C)(C)C)c1 (stereo not given) | -1% | 0%
COc1ccc(NC(=O)CSc2nc(C)c3c(c2C#N)CCCC3)cc1 | 20% | 32%[activator]
Cc1nc(-n2nc(C)c(Cc3ccc(Cl)cc3)c2C)sc1C(=O)N1CCC(C)CC1 | -15% | -12%
Cc1ccc(OCC(=O)Nc2nnc(SCc3cc(=O)c4ccccc4[nH]3)s2)cc1C | -11% | -11%
Cc1cccc(NC(=O)c2sc(-n3nc(C)c(Cl)c3C)nc2C)c1 | -11% | 6%
CCN(CC)C(=O)c1sc2c(c1C)c(=O)n(CCc1ccccc1)c(=O)n2Cc1cccc(Cl)c1 | -5% | -16%
COc1cccc(C(=O)Nc2oc3ccc(Cl)cc3c(=O)c2-c2ccc3c(c2)OCO3)c1 | -2% | 19%
Cc1cc([N+](=O)[O-])ccc1NC(=O)COC(=O)C12CC3CC(CC(Cl)(C3)C1)C2 | -15%[1.06 µM] | -1%
Cc1cccc(NC(=O)CSc2nc(N3CCOCC3)c3c(c2C#N)CCCC3)c1 | -12% | -10%

These rows are one share of the data, so the mix of outcomes need not match the whole.
